Cruzain noTriton: blocks cruzain activity in detergent-free assay | P25779 | Potency, µM, for inactives: max response, negative = inhibition, hits mostly inhibitors | AID 1476 | purified cruzain, Z-FR-AMC fluorescence, no detergent | actives 2.3% (n = 200,000);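 note: plate controls were enzyme without inhibitor for no effect and buffer without enzyme for full effect; nearly all actives have a fitted effect of over 40% in size; top concentration of the series not given in the record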
Target sequence (P25779 123-467 limits assumed): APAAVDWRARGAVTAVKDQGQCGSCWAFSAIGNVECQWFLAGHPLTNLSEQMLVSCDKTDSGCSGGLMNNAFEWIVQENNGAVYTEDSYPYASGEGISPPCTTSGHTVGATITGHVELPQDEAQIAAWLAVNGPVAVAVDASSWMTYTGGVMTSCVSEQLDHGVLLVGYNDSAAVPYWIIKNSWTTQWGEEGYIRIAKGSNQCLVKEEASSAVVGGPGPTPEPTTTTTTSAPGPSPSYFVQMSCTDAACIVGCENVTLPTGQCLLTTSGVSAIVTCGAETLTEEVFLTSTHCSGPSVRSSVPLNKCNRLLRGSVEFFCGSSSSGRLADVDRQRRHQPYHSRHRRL
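Detergent-free condition (0.00005% Triton X-100) in acetate buffer pH 5.5 with DTT. 1.5 nM enzyme and compound were pre-mixed 15 min, then 2 uM Z-FR-AMC substrate added; reaction progress from fluorescence change between first and third reads (60 s).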
RE007 growth inh: less growth of the S. pombe RE007 Vpr strain; Potency, µM (top dose mostly 92.2 µM), inactives show at the top dose activity change, negative = less growth; AID 651644; S. pombe RE007 Vpr strain, BacTiter-Glo ATP luminescence, 24 h; control for the full effect not named in the record; actives 0.21% (n = 360,000); active = well fitted falling curve with a large enough effect; inconclusive = small, poorly fitted or top-dose-only effect; inactive = no such curve, though single readings can be large or run the other way;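 note: % is set by controls: 0 for no effect and ±100 for the full control effect; nearly all actives have a fitted effect of over 50% in size; the assay follows cell death caused by Vpr and the record does not say whether a fall means rescue or toxicity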
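Fission yeast strain RE007, carrying one chromosomally integrated HIV-1 vpr copy, was seeded at OD 0.01 in PMG+AL medium with 23 nL pinned compound. After 24 h at 30 °C and 99% humidity, viability was read by BacTiter-Glo luminescence.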
NS1 inh: blocks influenza NS1 protein function | S. cerevisiae slowed by influenza A NS1, growth recovery by OD600 | Potency, µM (titrated, usually from 46.1 µM), inactives show at the highest dose activity, positive = more growth | actives 0.4% (n = 270,000) | AID 2326; active means well fitted rising curve with a large enough effect; inconclusive means small, poorly fitted or top-dose-only effect; inactive means no such curve, though single readings can be large or run the other way; note: nearly all actives have a fitted effect of over 50% in size
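Read-out: OD600 growth recovery of NS1-expressing budding yeast. Cells grown overnight at 30C in -URA glucose medium, washed, resuspended and diluted 1:100 in 2% galactose assay medium, pH 6.0. Same strain lacking NS1 served as positive control.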
MARV entry inh: Marburg virus entry inhibition; actives 1.8% (n = 300,000); Marburg virus pseudotyped entry inhibition, cell reporter; control for the full effect not named in the record; about a third of the inactives were read at about 46 µM; Potency, µM (series often up to 37.8 µM), for the others: top-dose activity change, negative = inhibition, hits mostly inhibitors; active = well fitted inhibition curve with a large enough effect; inconclusive = small, poorly fitted or top-dose-only effect, or effect the other way; inactive = flat fitted curve, though single readings scatter; tested in HEK293 cells; about a fifth of its hits are not listed in these tables; note: % is set by controls: 0 for no effect and ±100 for the full control effect; luciferase read-out
SARS PLP yeast: SARS-CoV PLP inhibition in yeast | AID 485353 | actives 0.19% (n = 330,000) | Potency, µM (doses to about 32.9 µM), for the others: at the highest dose activity, positive = growth rescue | S. cerevisiae expressing SARS-CoV PLpro, growth rescue; control for the full effect not named in the record; active means well fitted rising curve with a large enough effect; inconclusive means small, poorly fitted or top-dose-only effect; inactive means no such curve, though single readings can be large or run the other way; note: 0% is about no effect; nearly all actives have a fitted effect of over 55% in size; growth read by luminescence after 48 h
Cruzain Triton: cruzain (T. cruzi) inhibition with detergent | purified cruzain, Z-FR-AMC fluorescence, 0.01% Triton | P25779 | Potency, µM, without a hit: max response, negative = inhibition, hits mostly inhibitors | AID 1478 | actives 0.43% (n = 200,000);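 note: plate controls were neutral wells for no effect and buffer without enzyme for full effect; nearly all actives have a fitted effect of over 40% in size; top concentration of the series not given in the record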
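Sodium acetate buffer (100 mM, pH 5.5) containing 5 mM DTT and 0.01% Triton X-100 hosted 1.5 nM cruzain and test compound for 15 min at room temperature. Cleavage of 2 uM Z-FR-AMC was then tracked by fluorescence.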
StopGo reporter: lowers the luciferase signal of an FMDV 2A StopGo reporter; human cells with a luciferase reporter of 2A StopGo recoding; control for the full effect not named in the record; Potency, µM (highest dose often 57.9 µM), inactives show at the highest dose signal change, negative = less light; actives 1.2% (n = 410,000); active = well fitted falling curve with a large enough effect; inconclusive = small, poorly fitted or top-dose-only effect; inactive = no such curve, though single readings can be large or run the other way; tested in HEK293T cells; note: % is set by controls: 0 for no effect and ±100 for the full control effect; nearly all actives have a fitted effect of over 45% in size; luciferase light after 4 h
LASV entry inh: blocks Lassa virus binding to or entry into cells. actives 1.2% (n = 300,000). AID 540256. Potency, µM (highest dose often 37.9 µM), without a hit: top-dose activity change, negative = inhibition, actives largely listed as inhibitors. Lassa virus pseudotype entry inhibition, cell reporter; control for the full effect not named in the record; active means well fitted inhibition curve with a large enough effect; inconclusive means small, poorly fitted or top-dose-only effect, or effect the other way; inactive means flat fitted curve, though single readings scatter; tested in HEK293 cells; note: % is set by controls: 0 for no effect and ±100 for the full control effect; nearly all actives have a fitted effect of over 50% in size; luciferase read-out
Starred values were filed as active, the others as inactive; ? = inconclusive; · = no result given; & = joins results of further samples; [ ] = dose if it differs, or a comment. Unless noted, calls come from the whole dose curve; as a rule, active = well fitted curve in the direction sought with a large enough effect; inconclusive = small, poorly fitted or top-dose-only effect, or another doubt; inactive = no such curve, though single readings can be large; an effect the other way counts as inactive or inconclusive. Potency is the fitted concentration of half-maximal effect.

SMILES	Cruzain noTriton	RE007 growth inh	NS1 inh	MARV entry inh	SARS PLP yeast	Cruzain Triton	StopGo reporter	LASV entry inh
COc1nc(C#N)nc(N(C)C)n1	13µM*	4%	-13%	-11%&-11%&-11%	-2%	10µM*	?	4%
O=C(c1cc(COc2ccc(F)cc2Cl)on1)N1CCCC(OCc2cccnc2)C1 (stereo not drawn)	·	11%	-33%	-7%[46.1 µM]	-1%	·	0%	-4%
Cc1onc(-c2ccccc2Cl)c1C(=O)Nc1ccccc1N1CCOCC1	-16%	-11%	-1%	-16%	1%	-2.4%	0%	1%
O=C(NCCCN1CCCC1=O)c1ccc(OC(F)(F)F)cc1	·	2%	3%	27%[46.1 µM]	-2%	·	9%	?
COc1ccccc1C(=O)NCCn1cc(SCC(=O)NCc2ccco2)c2ccccc21	17%	7%	2%	?	?	-9.8%	-26%	-13%
C=CCn1c(=O)c(C(=O)Nc2ccccc2OC)c(O)c2ccccc21	-5%	·	6%	-8%	0%	-2.7%	·	·
COCCCn1cnc2c(c1=O)c1nc3ccccc3nc1n2CCc1ccccc1	?	-9%	8%	0%&-5%	1%	-7.2%	?	-8%
O=C(CCN1C(=O)/C(=C/c2ccccc2F)SC1=S)Nc1ccccn1	·	9%	-6%	-1%	1%	·	-21%	0%
COc1ccc(NC(=S)N2CCCN(Cc3cc(C)ccc3C)C2)cc1	·	3%	·	?	3%	·	-2%	-23%[46.1 µM]
CC(C)CCSc1nc(N)c(C#N)cc1C#N	-17%	0%	-9%	?	-14%	-3.5%	-13%	-7%
Cc1cc(C)c(Cn2c3ccccc3c3cnn(CC(=O)NCc4ccccn4)c(=O)c32)c(C)c1	?	1%	1%	?	-3%	-4.1%	?	?
CCOC(=O)c1cccnc1SCC(=O)Nc1ccc(C)cc1C	5%	·	·	·	·	0.7%	18%	2%[46.1 µM]
O=C(O/N=C/c1ccc(Cl)cc1)C1CCCCC1	·	-12%	-8%	?	0%	·	-8%	5%
CN1C(=O)CSC1=S	·	1%[18.4 µM]	6%	·	0%	·	-17%	·
O=[N+]([O-])c1ccc(NCCCNS(=O)(=O)c2ccccc2)cc1	·	13%	-5%	?	0%	·	-21%	-19%
COc1ccc(NC(=O)CCc2ccccc2)cc1S(=O)(=O)N1CCCCC1	·	-15%	·	?	-18%	·	-23%	-18%
COc1cccc(-c2nc(S(=O)(=O)c3ccc(C)cc3)c(NCc3ccccc3)o2)c1	3%	·	·	?	·	1.0%	16%	10µM*
CC(C)[C@H]1C=C(C(=O)O)O[C@@H](OCc2ccc(CO)cc2)C1	·	-1%	8%	·	3%	·	-9%	·
CC(=O)N/C(=C/c1ccc(OS(=O)(=O)c2ccc(C)cc2)cc1)C(=O)NCCO	16%	-18%	24%	-22%	0%	-2.0%	-22%	-1%
Cc1ccc(S[C@@H](CCN2CC[C@H](C)CCC2=O)c2ccccc2)cc1	·	20%	-83%	·	-17%	·	-9%	·
CCCCc1nc(Cl)c(C#N)c2c1CCC2	·	7%	4%	-15%[46.1 µM]	2%	·	-22%	17%[46.1 µM]
O=C(C[n+]1ccc(/C=C/c2ccccc2)cc1)c1ccc2c(c1)OCCO2	·	-7%	12%	?	0%	·	-23%	?
CSc1ccccc1NC(=O)c1ccc(C)o1	5%	-22%	?	19%	-6%	4.5%	48%[activator]	?
Cc1nnc2sc(SCC(=O)Nc3ccc(Cl)cc3)nn2c1=O	·	2%	6%	?	2%	·	13%	-21%[46.1 µM]
Cc1cccc(N2CCN(C(=O)c3c(C)oc4nc(C)nc(N5CCCC5)c34)CC2C)c1 (stereo not drawn)	25%	·	·	·	·	1.9%	-13%	-7%[46.1 µM]
CC(C)CCNC(=O)COc1ccc(C(=O)c2ccccc2)cc1	·	-5%	·	?	-5%	·	-28%	?
CCOC(=O)C(=O)N(Nc1ccccc1C)c1ccccc1C	·	10%	0%	·	1%	·	-19%	·
COc1cc(/C=N/Nc2ccc(Cl)nn2)cc(OC)c1O	·	19%	-1%	·	0%	·	-14%	·
Cc1ccc(C)c(NC(=O)CCC(=O)N2CCOc3ccccc32)c1	·	16%	4%	·	-2%	·	-11%	·
O=S(=O)(c1ccc(Cl)cc1)N1CCN2CCCC2C1 (stereo not drawn)	·	1%	-1%	·	2%	·	0%	·
Cc1cccc2sc(N(Cc3cccnc3)C(=O)CCS(=O)(=O)c3ccccc3)nc12	-3%	·	·	·	·	-3.1%	-17%	?
COc1ccc(C(=O)Nc2c(C)cc(C)cc2C)cc1OC	·	20%	-23%	·	-10%	·	5%	·
O=C(/C=C/c1ccccc1)NC(=S)Nc1ccc2c3c(cccc13)CC2	13µM*	21%	25%	-13%	-7%	-6.1%	-7%	-1%
CCN(CC)CC(C(=O)N(CC)CC)P(=O)(c1ccccc1)c1ccccc1 (stereo not drawn)	-3%	2%	3%	8%	9%	3.0%	-10%	4%
Cc1ccc(OCCCC(=O)NNC(=O)c2ccncc2)cc1	·	0%	·	13%	·	·	-6%	5%
NC(=O)c1c(NC(=O)Cn2cnc([N+](=O)[O-])n2)sc2c1CCCC2	·	-6%	-50%	·	-5%	·	-11%	·
O=S(=O)(c1ccc(Br)cc1)n1ccc2ccccc21	-4%	-24%	-32%	-20%	-23%	-7.7%	-2%	-9%
O=C(NCCOc1ccc2ccccc2c1)c1cncc(Br)c1	·	-19%	-3%	·	-4%	·	-9%	·
CN(CC(=O)Nc1cccc(F)c1)C(=O)c1ccc(S(=O)(=O)N2CCCC2)cc1	·	1%	·	-7%	-2%	·	-18%	2%
Oc1cccc(Nc2nc(-c3ccccc3Cl)nc3ccccc23)c1	·	9%	3%	?	-4%	·	?	-40%[46.1 µM]
CCn1c2ccccc2c2cc(/C=N/NC(=O)c3ccc(O)cc3)ccc21	25µM*	2%	?	7.1µM*	0%	?	-22%	5µM*
Cc1cc(C)c2oc(=O)cc(CN3CCCCC3)c2c1	·	2%	7%	4%[46.1 µM]	-2%	·	-14%	6%[46.1 µM]
CC1CCN(S(=O)(=O)N2CCCC(C(=O)NCc3ccccc3Cl)C2)CC1 (stereo not drawn)	·	-13%	-4%	·	6%	·	-12%	·
CCOC(=O)C1=C(C)N(CCCC(=O)O)C(=O)NC1c1ccc([N+](=O)[O-])cc1 (stereo not drawn)	-5%	-5%	-2%	-2%	5%	-1.4%	-11%	-1%
Cc1nn2c(=O)cc(COC(=O)c3ccccc3NC(=O)c3cccs3)nc2s1	0%	·	·	·	·	0.0%	?	7%[46.1 µM]
CC1CN(C(=O)COC(=O)COc2ccc(C#N)cc2)CC(C)O1 (stereo not drawn)	·	16%	·	2%	·	·	-6%	1%
O=C(OCC(=O)N1CCCC1)c1ccc(Cl)c([N+](=O)[O-])c1	·	-8%	2%	-1%[46.1 µM]	-1%	·	25%	-1%[46.1 µM]
COc1cc(OC)c(S(=O)(=O)Nc2ccc(C)cn2)cc1NC(C)=O	15%	-7%	8%	-6%	4%	1.8%	25%	-11%
CC(C)(Oc1cccc2ccccc12)C(=O)O	-5%	3%	-1%	0%	·	1.8%	15%	5%
O=S(=O)(c1ccccc1)c1cnn2c(C(F)(F)F)cc(-c3ccc(F)cc3)nc12	?	6%	13%	?	4%	7.1%	11%	2%
Cc1cc(OCC(=O)NC2CCCCC2)ccc1Cl	-19%	2%	-10%	-5%	22%	-1.3%	40%[activator]	?
CC1CCN(S(=O)(=O)c2ccc(N=NC3=C(O)CC(C)(C)CC3=O)cc2)CC1	?	2%	4%	1%	5%	-1.2%	-22%	7%
Cc1ccc(N2C(=O)N(CC(=O)Nc3ccc(C)c(C)c3)C(=O)C2C)cc1 (stereo not drawn)	·	9%	·	-9%	·	·	5%	-19%
CC(=O)Nc1ccc(NC(=O)c2ccc(COc3ccc4c(C)cc(=O)oc4c3)cc2)cc1	-15%	·	15%	1%	0%	-4.1%	·	15%
Cc1ccc(-n2nc3c(c2NC(=O)c2cccs2)CSC3)cc1	?	16%	-45%	-27%	-1%	0.6%	·	?
Cc1nn2c(C)c(C(=O)N3CCN(c4ccccc4)CC3)cnc2c1-c1ccccc1	?	·	·	·	·	-7.8%	-23%	23%[46.1 µM]
COc1ccc(/C=N/NC(=O)c2ccoc2C)cc1O	0%	-5%	-2%	10%	12%	-4.5%	27%	?
CC(C)CC(=O)Nc1ccc(C(=O)Nc2cccc(O)c2)cc1	·	12%	4%	?	8%	·	28%	28%[46.1 µM]
COc1cc([C@@H]2c3cc4c(cc3[C@@H](O)[C@H]3COC(=O)[C@H]23)OCO4)cc(OC)c1O[Si](C)(C)C(C)(C)C	·	-4%	3%	·	-2%	·	0%	·
CC(C)(C)OC(=O)N[C@@H](Cc1c[nH]c2ccccc12)c1nnc(SCC(N)=O)o1	13%	-13%	2%	27%	0%	3.3%	4%	?
The list continues.
SMILES	Cruzain noTriton	RE007 growth inh	NS1 inh	MARV entry inh	SARS PLP yeast	Cruzain Triton	StopGo reporter	LASV entry inh
COc1cccc(C(=O)NCCc2csc(-c3ccc(Cl)cc3)n2)c1	30%	·	·	·	·	-12%	?	10%[46.1 µM]
COc1ccc(-c2cc(C(=O)NNC(=S)NC(=O)c3c(-c4ccccc4)noc3C)[nH]n2)cc1	·	1%	3%	?	0%	·	10%	-25%[46.1 µM]
Cc1ccc(S(=O)(=O)N(C)c2ccc(OCC(=O)OCc3c(C)noc3C)cc2)cc1	?	-8%	-11%	28%[46.1 µM]	-7%	-0.2%	6%	-4%
Cc1ccc(CN2CCC(CNC(=O)c3cnn(-c4ccccc4)c3C3CCN(C(=O)OC(C)(C)C)CC3)CC2)cc1	-14%	·	·	·	·	-2.6%	-21%	20%[46.1 µM]
CC(=O)Nc1ccc(NC(=O)CCC(=O)Oc2ccc(C)cc2)cc1	·	4%	0%	·	6%	·	10%	·
CO/N=C/c1ccc(N2CCCC2)c([N+](=O)[O-])c1	·	-9%	·	?	-1%	·	-9%	-26%

Compound activity as filed in PubChem BioAssay.
